Methyltransferases = Primary Screen for Target Class Profiling of Small Molecule Inhibitors of Methyltransferases. 3.9% of 25,000 active. calls only at 40 µM. purified enzyme, MTase-Glo SAH luminescence; hits give low values; active = -50% or lower on at least one of six enzymes; inconclusive = the cases between; inactive = as a rule above -30% on all six;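 also: enzymes were COMT GAMT GNMT HNMT NNMT and PNMT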
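Each enzyme was reacted with SAM and its substrate, with compounds tested once at 40 uM; SAH formed was read by MTase-Glo luminescence.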
Calls only; i = inactive; ? = inconclusive; + = active, no number. % is scaled to controls: 0 for no effect and ±100 for the full control effect.

SMILES	Methyltransferases
COc1ccc(N2C(=O)c3cc4ccc(OC)cc4n3CC2(C)C(=O)NC2CCCCC2)cc1 (stereo not given)	i
COc1ccc(NC(=O)C(C)Oc2ccc3c(-c4ccccc4)cc(=O)oc3c2)cc1 (stereo not given)	i
CC1CCN(CCNC(=O)c2cc3cn(C(C)C)cc3s2)CC1	?
CC(C(=O)N1CCOCC1)n1ccc2cc(S(=O)(=O)N3CCCC3)ccc21 (stereo not given)	i
CCCN(CCC)S(=O)(=O)c1ccc2[nH]c(=O)[nH]c2c1	i
CCC(C)C(N)C(=O)NCCN1CCOCC1 (stereo not given)	i
C/C=C(/C)C(=O)O[C@H]1C=C(C)C[C@H](OC(=O)c2ccc(O)cc2)C2[C@](O)(C(C)C)CC[C@@]21C (stereo not given in full)	i
O=C(NCc1ccon1)C1CCCN(C2CCN(c3nc4ccccc4o3)CC2)C1 (stereo not given)	i
CCCn1c(C)cnc1CC1CCN(S(=O)(=O)CCC)CC1	i
CC1(C(=O)NC2CCCCCC2)Cn2c(cc3occc32)C(=O)N1Cc1ccccn1 (stereo not given)	i
CCNC(=O)[C@H]1CCCN1C(=O)[C@H](CCCN=C(N)N)NC(=O)[C@H](CC(C)C)NC(=O)[C@H](CC(C)C)NC(=O)[C@@H](Cc1ccc(O)cc1)NC(=O)[C@H](CO)NC(=O)[C@@H](Cc1c[nH]c2ccccc12)NC(=O)[C@H](Cc1cnc[nH]1)NC(=O)[C@@H]1CCC(=O)N1	?
COc1cccc(CNC(=O)CCNc2cnc3cnccn23)c1	i
O=C(CCCCCCCCC#CI)Oc1ccccc1	i
COc1cccc(CNC(=O)Nc2cccc(-c3ccc(N4CCCCC4)nn3)c2)c1	i
CCCCN1C(=O)c2cc(C(=O)NCCc3ccccc3)nn2CC1(C)C(=O)NC1CCCC1 (stereo not given)	i
Cc1ccc(NC(=O)CSc2nnc3n(C)c(=O)c4ccc(C(=O)NC5CCCC5)cc4n23)cc1F	i
CCNC(=O)[C@H]1O[C@H](n2cnc3c(NCC(c4ccccc4)c4ccccc4)nc(C(=O)NCCNC(=O)NC4CCN(c5ccccn5)CC4)nc32)[C@H](O)[C@@H]1O	i
COc1ccc(CNC(=O)CCc2nnc3n(Cc4ccc(F)cc4)c(=O)c4ccccc4n23)cc1	i
CC(C)c1ccc(N2C[C@]34C=C[C@H](O3)C(C(=O)N3CCSCC3)C4C2=O)cc1 (stereo not given in full)	i
CC1(C)CCC(CN2CCN(c3ccc(C(=O)NS(=O)(=O)c4ccc(NCC5CCOCC5)c([N+](=O)[O-])c4)c(Oc4cnc5[nH]ccc5c4)c3)CC2)=C(c2ccc(Cl)cc2)C1	+
CC(C)=CCC[C@](C)(O[C@@H]1O[C@H](CO)[C@@H](O)[C@H](O)[C@H]1O)[C@H]1CC[C@]2(C)[C@@H]1[C@H](O)CC1[C@@]3(C)CC[C@H](O)C(C)(C)C3[C@@H](O[C@@H]3O[C@H](CO)[C@@H](O)[C@H](O)[C@H]3O[C@@H]3OC[C@@H](O)[C@H](O)[C@H]3O)C[C@]12C (stereo not given in full)	i
Cc1cccc(C(=O)N2C[C@H]3OC(=O)N(CCCN4CCOCC4)[C@H]3C2)c1	i
COCCC1(N(C)C)CCN(S(=O)(=O)c2cc(OC)ccc2OC)CC1	i
COc1ccc(CCC(=O)N2CCC3(CC2)CC(Cc2nc(-c4cnccn4)no2)CCO3)cc1 (stereo not given)	i
CCCn1c(=O)c2cc(Cl)ccc2n2c(SCc3ccccc3F)nnc12	i
CCCn1c(=O)c2ccc(C(=O)NC(C)CC)cc2n2c(=O)n(CC(=O)c3ccc(F)cc3F)nc12 (stereo not given)	i
COC(=O)N(C)Cc1cccc(N2CCN(C(=O)OC(C)(C)C)CC2)c1F	i
COC(=O)c1ncn2c1C(=O)N(Cc1ccccc1Cl)C(C)(C(=O)NCc1ccccc1OC)C2 (stereo not given)	i
CN1CCCCCCN(C(=O)NCc2ccccc2)CCC1=O	i
CCCCOc1ccc(CNC(=O)c2cc3n(n2)CC(C)(C(=O)NCc2ccc(F)cc2)N(C)C3=O)cc1 (stereo not given)	i
COc1ccc(S(=O)(=O)NCC2Cn3cccc3C(=O)N2Cc2ccccc2)cc1 (stereo not given)	i
O=C(NCCc1ccccc1)N1CCn2cccc2C1Cc1ccccc1 (stereo not given)	?
O=C(Nc1cccc(C(F)(F)F)c1)[C@@H]1CCCN1c1ccnc2ccnn12	i
CCc1cc2c(cc3n2CC(C)(C(=O)NC2CCCCC2)N(CCCc2ccccc2)C3=O)s1 (stereo not given)	i
CCCC1c2ccc(C)n2CCN1C(=O)Nc1ccc(Br)c(C)c1 (stereo not given)	i
COc1ccc(C2Cn3nnc(-c4noc(C5CCC5)n4)c3CO2)cc1 (stereo not given)	i
Cc1cccc(Cn2nc3n(C(C)C)c(=O)c4ccc(C(=O)NC5CCCC5)cc4n3c2=O)c1	i
CCn1cc(S(=O)(=O)N2CCC(c3noc(-c4ccncc4)n3)C2)cn1 (stereo not given)	i
O=C(O)Cc1ccccc1Oc1ccc(Cl)cc1Cl	i
CC1(C(=O)NC2CCCC2)Cn2c(c(-n3cccc3)c3ccccc32)C(=O)N1Cc1cccs1 (stereo not given)	i
CCOC(=O)c1cc2n(n1)CC(C)(C(=O)NC1CCCCC1)N(c1ccc(F)cc1)C2=O (stereo not given)	i
Cc1ccc(N2C(=O)c3cc(-c4ccccc4)nn3CC2(C)C(=O)NCc2ccccc2)cc1Cl (stereo not given)	i
O=C(CCc1nnc2n(Cc3ccccc3)c(=O)c3ccccc3n12)NC1CCN(Cc2ccccc2)CC1	i
Cn1nc2n(c1=O)CCN(C(=O)c1ccc(F)cc1F)CC2	i
COC(=O)c1cc2n(n1)CC(C)(C(=O)NC1CCC(C)CC1)N(c1cccc(OC)c1)C2=O (stereo not given)	i
Cc1ccc(NC(=O)CSc2nnc3n(CC(C)C)c(=O)c4ccc(C(=O)NCC(C)C)cc4n23)cc1	i
CC(C)CCN1C(=O)c2ccccc2CC1(C)C(=O)NC1CCC(C)CC1 (stereo not given)	i
CCCn1c(=O)c2ccccc2n2c(SCC(=O)Nc3ccc(CC)cc3)nnc12	i
Cc1cc(NC(=O)Nc2ccc3c(ccn3C)c2)sn1	i
COc1ccc(N2CC3CCC(C2)N3C(=O)NC(C)C)cc1	i
CN1C(=O)c2cc(C(=O)NCc3cccc(F)c3)nn2CC1(C)C(=O)NCc1ccccc1 (stereo not given)	i
Cc1ccc(CNC(=O)C2(C)Cn3cnc(C(=O)NCc4ccc(N(C)C)cc4)c3C(=O)N2C2CC2)cc1 (stereo not given)	i
COc1ccc2cc3n(c2c1)CC(C)(C(=O)NC1CCCCC1)N(CCC(C)C)C3=O (stereo not given)	i
Cc1cc(C)cc(N2CCC(NS(=O)(=O)c3cn(C)c(C)n3)C2=O)c1 (stereo not given)	i
Cc1ccc(NS(=O)(=O)c2ccc3c(c2)NC(=O)CC(=O)N3)c(C)c1	i
CCc1ccccc1NC(=O)Cn1nc2n(CC(C)C)c(=O)c3ccc(C(=O)NC(C)C)cc3n2c1=O	i
CCCOc1ccc(CN2C(=O)c3cc(C(C)(C)C)nn3CC2(C)C(=O)NC2CCCCC2)cc1 (stereo not given)	i
CCCn1c(=O)c2ccc(C(=O)NC(C)CC)cc2n2c(=O)n(CC(N)=O)nc12 (stereo not given)	i
COC(=O)c1[nH]c(=O)c2ccccc2c1-c1ccc[nH]1	i
C=C1C(=O)O[C@@H]2[C@H]1[C@H](O)C[C@]1(C)[C@@H](O)CC=C(C)[C@@H]21	i

Given with each value named: entries from further up.
> CCCn1c(=O)c2ccccc2n2c(SCC(=O)Nc3ccc(CC)cc3)nnc12
  Methyltransferases = i

> CCCn1c(=O)c2ccc(C(=O)NC(C)CC)cc2n2c(=O)n(CC(N)=O)nc12 (stereo not given)
  Methyltransferases = i

Back to the main list, starting 3 compounds before the break.
SMILES	Methyltransferases
CCCn1c(=O)c2ccc(C(=O)NC(C)CC)cc2n2c(=O)n(CC(N)=O)nc12 (stereo not given)	i
COC(=O)c1[nH]c(=O)c2ccccc2c1-c1ccc[nH]1	i
C=C1C(=O)O[C@@H]2[C@H]1[C@H](O)C[C@]1(C)[C@@H](O)CC=C(C)[C@@H]21	i
O=C1CCN(C(=O)Cc2ccccc2)CCCOCCN1	i
COc1cccc(CSc2nnc3n(Cc4ccc(F)cc4)c(=O)c4ccccc4n23)c1	i
CCCS(=O)(=O)N1Cc2c(ncn2Cc2ccc(Cl)cc2)C[C@H]1C(=O)OC	i
CCOc1ccccc1NC(=O)N1Cc2c(sc3c2CCCC3)-n2cccc2C1c1cccc(OC)c1 (stereo not given)	i
CCC(=O)OCC(=O)[C@@]1(OC(=O)CC)[C@@H](C)C[C@H]2[C@@H]3CCC4=CC(=O)C=C[C@]4(C)[C@@]3(F)[C@@H](O)C[C@@]21C	i
CCC(C)(NC(=O)C(CCC(N)=O)NC(=O)C1CC(O)CN1C(=O)C(C)(C)NC(=O)C(C)(C)NC(=O)C(CC(C)C)NC(=O)CNC(=O)C(NC(=O)C(C)(C)NC(=O)C(C)(C)NC(=O)C(C)(C)NC(=O)C(Cc1ccccc1)NC(C)=O)C(C)C)C(=O)N1CC(O)CC1C(=O)NC(C)(C)C(=O)NC(CO)Cc1ccccc1 (stereo not given)	i
Cn1c(=O)n(C)c2cc(S(=O)(=O)NC3CC3)ccc21	i
CCCN1C(=O)c2cc(C(=O)NCCCN3CCN(C)CC3)nn2CC1(C)C(=O)NC1CCCC1 (stereo not given)	i
COC(=O)c1cccc(NC(=O)N2Cc3c(sc4c3CCCC4)-n3cccc3C2c2ccccc2)c1 (stereo not given)	i
COc1ccc(C2(C(=O)N3CCOCC3)CCOCC2)cc1	i
Cc1ccccc1CN1C(=O)c2ccc(-c3ccco3)n2CC1(C)C(=O)NC1CCCCC1 (stereo not given)	i
CCOc1ccc(N2C(=O)c3cc(-c4ccco4)nn3CC2(C)C(=O)NC2CCCCC2)cc1 (stereo not given)	i
Cc1cc2[nH]c(=O)[nH]c2cc1S(=O)(=O)N1CCN(c2cccc(C)c2C)CC1	i
Cc1ccccc1Cn1nc2n(CC(C)C)c(=O)c3ccc(C(=O)NC4CCCCC4)cc3n2c1=O	i
CCOC(=O)c1cc2n(n1)CC(C)(C(=O)NCc1ccccc1)N(c1ccc(Cl)cc1)C2=O (stereo not given)	i
COc1cccc(CN2CCCC(O)(CN3CCC(C)CC3)C2=O)c1 (stereo not given)	i
Cc1ccc(CNC(=O)Cn2ccc3cc(S(=O)(=O)N4CCCC4)ccc32)cc1	i
COc1cccc(N2C(=O)c3cc4occc4n3CC2(C)C(=O)NC2CCCCCC2)c1 (stereo not given)	?
CC1(C)C(=O)N(Cc2ccccc2F)[C@H]2CN(C3CCOCC3)C[C@H]2[S+]1(=O)[O-]	i
CCN1C(=O)c2cc(C(=O)NCCc3ccc(Cl)cc3)nn2CC1(C)C(=O)NC1CCCC1 (stereo not given)	i

Molecules above that have a tert-butyl group (2):
SMILES	Methyltransferases
COC(=O)N(C)Cc1cccc(N2CCN(C(=O)OC(C)(C)C)CC2)c1F	i
CCCOc1ccc(CN2C(=O)c3cc(C(C)(C)C)nn3CC2(C)C(=O)NC2CCCCC2)cc1 (stereo not given)	i

Later entries
SMILES	Methyltransferases
Cc1cnn(CCC(=O)N2CCC3(CCNCC3)CC2)c1	i
CN[C@H](CC(=O)O)C(=O)O	i
O=C1CC2(CCN(CC3CCOCC3)C2)Nc2ccccc2N1 (stereo not given)	i
N#Cc1ccc(N2N=C3c4ccc(C(=O)O)cc4CC[C@@H]3[C@@H]2C2CCCC2)cc1Cl	+
CCCn1c(=O)c2ccc(C(=O)NCC(C)C)cc2n2c(=O)n(C(C)C(=O)c3ccc(C)c(C)c3)nc12 (stereo not given)	i
Cc1cc2c(cc3n2CC(C)(C(=O)NC2CCCCCC2)N(C2CCCc4ccccc42)C3=O)o1 (stereo not given)	i
CCc1cc2c(cc3n2CC(C)(C(=O)NC2CCCCC2)N(CCCN2CCCCC2)C3=O)s1 (stereo not given)	i
CC(C)Cn1c(=O)c2ccccc2n2c(SCC(=O)Nc3cccc(F)c3)nnc12	i
CC(C)C[C@H](NC(=O)[C@@H]1C[C@@H](n2nnc(C(N)=O)c2C(N)=O)CCN1C(=O)c1cnccn1)C(N)=O	i
CC1CCCCN1CCN1C(=O)c2ccc(-c3ccco3)n2CC1(C)C(=O)NC1CCCCC1 (stereo not given)	i
COC(=O)C(C)Oc1ccc2c(-c3ccccc3)cc(=O)oc2c1 (stereo not given)	i
CC1CCCN(C(=O)CN2CCCc3nc(-c4ccccc4)ncc3C2=O)C1 (stereo not given)	i
COc1ccc(N2CCN(C(=O)CCc3nnc4n(CCc5ccccc5)c(=O)c5ccccc5n34)CC2)cc1	i
COc1ccccc1OCCN1C(=O)C2(CCOCC2)CC1c1nnnn1C(C)(C)C (stereo not given)	i
CCOC(=O)c1cc2n(n1)CC(C)(C(=O)NCc1ccccc1)N(CCc1cccs1)C2=O (stereo not given)	i
CN1CC(=O)N(C2CCNC2)Cc2c(NCCc3cccc(F)c3)ncnc21 (stereo not given)	i
COC(=O)c1cc2n(n1)CC(C)(C(=O)NC1CCC(C)CC1)N(Cc1ccccc1)C2=O (stereo not given)	i
COc1ccc(NC(=O)CN(C)S(=O)(=O)c2ccc3[nH]c4c(c3c2)CCCC4)cc1OC	i
O=C(Nc1ccccc1)N1CCCC(C(=O)N2CCC(N3CCOCC3=O)CC2)C1 (stereo not given)	i
CC(CNC(=O)CCc1nnc2ccc(NCCCN3CCCC3=O)nn12)c1ccccc1 (stereo not given)	i
Cc1cccc(-c2nnn3c2nc(N2CCCC2)c2cc(Cl)ccc23)c1	i
CCOC(=O)c1cc2n(n1)CC(C)(C(=O)NC1CCCCC1)N(c1ccc(NC(C)=O)cc1)C2=O (stereo not given)	i
CC1CCCC(NC(=O)C2(C)Cn3c(nc4ccccc43)C(=O)N2CCCc2ccccc2)C1C (stereo not given)	i
COc1ccc(CCNC(=O)CCCc2nnc3n4nc(-c5ccccc5)nc4c4ccccc4n23)cc1OC	i
Cc1ccc(Cl)cc1NC(=O)Cn1nc2n(CCc3ccccc3)c(=O)c3ccccc3n2c1=O	i

Bioassay records (PubChem BioAssay)

Some of the compounds tested (hit frequency here may not be typical).
